Calb FLC: affects C. albicans growth with fluconazole; C. albicans CaCi-2 (fluconazole-resistant clinical isolate) + fluconazole, Alamar Blue growth, 48 h; growth inhibition, % (no concentration beside the values); 300,000 tested, 0.57% active; AID 1979;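 active = most replicates above 75%; inconclusive = exactly half above 75%; inactive = most below 75%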;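 note: all wells also contain fluconazole at 8 µg/ml as a sub-toxic cotreatment; 0% = median of DMSO wells and 100% = median of geldanamycin control wells; wells of about 8 µL received 7.5 nL stock; the first replicate is given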
T cruzi repl: T. cruzi replication inhibition | T. cruzi beta-gal in NIH3T3, luminescence, 90 h | inhibition, % (no concentration beside the values) | 300,000 tested, 1.4% active;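 active = mean inhibition across valid replicates above about 55%, limit read from the data; inconclusive = mean below that limit but half or more replicates reach it; inactive = mean below it, under half of replicates reach it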;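 note: signal also drops with host cell toxicity which is not excluded here; 0% = plate median of DMSO wells and 100% = zero luminescence signal; higher percent means less beta-gal luminescence so fewer parasites; stock transfer was 50 nL into about 50 µL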
LANA-H2A inh: blocks KSHV LANA binding to histone H2A/H2B; Q9QR71; cell-free LANA-H2A/H2B peptide, fluorescence polarization; inhibition, % (test concentration not listed); 320,000 tested, 0.6% active; in the data active = inhibition mostly above about 10%, no sharp cut-off; inactive = mostly below about 6.7%;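 note: stock transfer was 7.5 nL into about 10 µL; 0% = median of vehicle wells and 100% = median of positive control wells; one replicate is shown; the record names a cut of 25% in any replicate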
ALR H2O2 inh: inhibitors of human sulfhydryl oxidase ALR; P55789; purified ALR, DTT oxidation, H2O2 HRP-luminol luminescence; inhibition, % (test concentration not listed); 290,000 tested, 3.8% active;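 active = mean and each replicate at 75% or more; inconclusive = only one of the two met; inactive = neither met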;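 note: stock transfer was 7.5 nL into about 7.5 µL; 0% = neutral wells and 100% = wells with inactivated enzyme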
Target sequence (P55789 whole entry, looked up): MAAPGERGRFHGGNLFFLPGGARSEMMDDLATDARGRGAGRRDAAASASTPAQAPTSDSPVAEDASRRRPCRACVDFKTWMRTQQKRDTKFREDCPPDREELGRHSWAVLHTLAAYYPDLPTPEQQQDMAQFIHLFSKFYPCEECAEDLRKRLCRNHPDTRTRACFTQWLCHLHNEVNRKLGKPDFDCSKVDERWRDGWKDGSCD
A1 inh: inhibitors of the anti-apoptotic protein A1, read as caspase activation; caspase activation, % (concentration not given with the values); MEF A1-2A-BIM cells, Caspase-Glo 3/7 luminescence, 3 h; percent of clofoctol response, vehicle zero; AID 2462; 330,000 tested, 0.066% active;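 active = over half of replicate activation scores above 10%, or exactly half above 10 with the replicate mean above 10; inconclusive = replicate mean below 10 yet half the replicates above 10; inactive = over half of replicates below 10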;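 note: wells of about 30 µL received 50 nL stock; many hits fall short of the cut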
B2AR ag: human beta-2 adrenergic receptor agonism by FAP. P07550. Am2.2-beta2AR cells, FAP receptor internalization, flow cytometry; reference of the scale not given here. response, % (no concentration beside the values). 340,000 tested, 0.43% active. AID 504454;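 active = response above a set limit, near 3 SD of response in nonfluorescent compounds, cut at about 42% in these data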;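 note: stock transfer was 100 nL into about 11 µL; a reference agonist was the positive control; negative values mostly stem from fluorescent compounds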
Target sequence (P07550 whole entry, looked up): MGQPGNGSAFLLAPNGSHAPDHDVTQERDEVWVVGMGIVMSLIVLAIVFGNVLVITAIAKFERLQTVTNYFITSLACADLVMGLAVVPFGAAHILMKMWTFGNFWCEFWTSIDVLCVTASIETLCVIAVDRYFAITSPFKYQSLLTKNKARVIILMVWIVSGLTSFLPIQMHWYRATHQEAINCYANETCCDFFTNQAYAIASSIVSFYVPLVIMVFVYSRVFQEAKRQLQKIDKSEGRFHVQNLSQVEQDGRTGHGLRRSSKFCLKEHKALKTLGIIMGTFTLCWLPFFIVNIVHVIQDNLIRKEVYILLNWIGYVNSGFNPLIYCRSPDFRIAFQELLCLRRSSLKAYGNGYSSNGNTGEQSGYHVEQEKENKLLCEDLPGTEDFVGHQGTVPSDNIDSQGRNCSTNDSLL
rRNA inh HTS: selective bacterial rRNA inhibition in E. coli; E. coli WT GFP vs humanized-ribosome RFP mutants, fluorescence, 24 h; active compounds read low; DMSO median 0, no signal -100; GFP signal change (wild-type ribosome), % (test concentration not listed); 350,000 tested, 1.6% active; AID 720706;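 active = significant combined selectivity score with lowered wild-type GFP, culture density cut under 30%, mutant RFP and density less affected; inactive = any of these conditions unmet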; note: one replicate is shown; some compounds called inactive have numbers as strong as hits
Beta cell apopt: blocks beta cell apoptosis | protection from apoptosis, % (no concentration beside the values) | AID 435005 | 300,000 tested, 0.8% active | INS-1E cytokine-induced death, ATP luminescence, 48 h; percent of positive-control rescue, neutral wells zero;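 active = all replicates at 75% or more, or half of them and the mean; inconclusive = half reach 75% but not the mean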;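 note: 0% = cytokine-treated negative control wells and 100% = positive control rescue; higher means more ATP so stronger rescue from cytokine killing; wells of about 40 µL received 100 nL stock; the first replicate is given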
rRNA inh HTS OD600: second read-out of rRNA inh HTS, no call of its own (marks repeat the call); OD600 change, %; measured here: OD600 growth;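 optical density of the mix in the first replicate; 0 = DMSO median and -100 = no signal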
rRNA inh HTS RFP: also measured in rRNA inh HTS; calls as there; RFP signal change, %; measured here: RFP humanized mutant strains;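 first replicate; 0 = DMSO median and -100 = no signal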
Numbers without * were called inactive; ? = inconclusive; · = no result given. The list is partial; the hit share may differ from the screen's.

The line under a structure holds: Calb FLC	T cruzi repl	LANA-H2A inh	ALR H2O2 inh	A1 inh	B2AR ag	rRNA inh HTS	rRNA inh HTS OD600	rRNA inh HTS RFP	Beta cell apopt
> COCc1cc(N2CCCCC2)nc(-c2ccccc2)n1
→ -6.2	9.1	-1.4	·	-0.5	4.4	-33.8	-30.0	-4.3	-1.6
> COc1cc(SC)ccc1C(=O)OCC(=O)NCC(C)C
→ -0.4	-2.9	-9.3	-0.6	0.7	-2.2	17.5	15.8	1.4	0.7
> CCOC(=O)c1cccc(NC(=O)C2CCCN(S(=O)(=O)c3cnc[nH]3)C2)c1 (stereo unspecified)
→ 0.7	3.9	-3.0	?	0.1	4.9	2.3	1.5	-5.7	-5.3
> C=CCn1c(O)c(N=NC(=S)Nc2ccccc2C)c2cc(S(=O)(=O)N3CCOCC3)ccc21
→ 105.9*	39.8	-4.4	·	0.1	2.6	15.0	25.5	0.9	54.9
> Cc1ccc(OCCn2cc(C(=S)N3CCCC3)c3ccccc32)cc1C
→ 3.7	29.6	0.2	-4.5	-0.1	-5.0	·	·	·	20.3
> CCc1ccc(NC(=O)Cn2nnc(C(=O)NCc3ccc(OC)cc3)c2N)cc1
→ -4.5	4.0	-4.1	-6.0	0.0	3.7	16.3	15.3	-1.8	-1.0
> NCC12CC3CC(C1)CC(c1ccc(Cl)cc1)(C3)C2
→ ?	63.7*	-6.7	-20.8	0.0	36.0	-53.8	-78.7	-28.7	0.5
> CCN(CC)S(=O)(=O)c1cccc(C(=O)N2CCCCC2)c1
→ 8.5	4.4	5.3	0.0	0.7	-10.1	·	·	·	-7.5
> Cc1nn(CC(=O)Nc2ccccn2)c(=O)c2ccccc12
→ 7.2	-6.2	-0.4	3.0	0.3	-14.5	·	·	·	-1.7
> Cn1c(=O)[nH]c2nc[nH]c2c1=O
→ 0.0	-16.4	1.8	-6.3	1.1	-1.8	·	·	·	-1.6
> O=C(COC(=O)c1ccccc1NC(=O)c1ccco1)NC1CC1
→ 8.7	-3.8	3.9	3.8	0.3	-18.3	6.5	5.9	-0.2	-3.5
> O=c1cc(CO)oc(CN2CCC(Cc3ccccc3)CC2)c1O
→ 3.4	-3.2	-7.9	-2.6	0.7	1.0	·	·	·	-5.2
> CC(NC(=O)c1nn(C)c2c1CS(=O)(=O)c1ccccc1-2)c1ccccc1 (stereo unspecified)
→ -5.0	0.8	-5.6	-3.2	0.1	0.6	-4.4	1.4	0.8	-2.7
> Cc1ccc([N+](=O)[O-])c(OCCN2CCc3ccccc3C2)c1
→ -3.4	17.7	1.8	-7.5	-0.7	-4.6	-14.5	-12.5	1.4	·
> Cc1cc(C)c(C(=O)COC(=O)CCNS(=O)(=O)c2c(Cl)cccc2Cl)cc1C
→ 7.4	-1.6	6.5	1.0	1.2	7.3	·	·	·	4.1
> C/C(=N\NC(=O)CNC(=O)c1ccc(Br)cc1)c1ccco1
→ -0.6	0.5	3.8	0.2	-0.9	-1.6	-10.5	-2.8	-3.3	-2.9
> COC(=O)c1ccccc1NC(=O)Nc1cnccn1
→ -0.6	-2.3	-2.4	-2.6	1.0	-2.6	·	·	·	-4.5
> CC(C)(C)OC(=O)N1CCCC(C(=O)Nc2cccc(C(=O)N3CCCC3)c2)C1 (stereo unspecified)
→ ·	·	1.9	0.9	2.8	-7.0	-27.9	-25.3	-2.7	-10.6
> Cc1ccc(S(=O)(=O)N2CCN(C(=O)COC(=O)C3CCC3)CC2)cc1
→ 8.6	-7.2	4.8	-0.7	0.5	-2.6	6.2	6.8	0.1	·
> CCCn1nc2cc(C(=O)NCc3ccc(OC)cc3)ccc2c1OCC
→ 9.4	-24.7	-4.4	0.2	-2.4	-3.4	-3.9	-0.5	-3.4	·
> O=C(CCCc1ccccc1)NCCc1ccc(F)cc1
→ 15.8	2.6	12.1	·	0.0	-4.7	-9.7	-1.3	-8.3	-2.2
> CCN1CCN(Cc2cccc(Oc3ccccc3)c2)CC1
→ 7.0	59.4*	13.4	-0.5	1.4	-13.4	4.0	1.0	21.0	7.8
> O=C(/C=C/c1cccc(F)c1)Nc1cc(S(=O)(=O)N2CCOCC2)ccc1Cl
→ ·	·	-6.1	-3.6	0.5	3.9	-16.6*	-21.6*	6.8*	7.1
> COC(=O)c1ccc(COC(=O)c2ccc(CS(=O)(=O)c3ccc(C)cc3)cc2)cc1
→ 2.3	-2.5	2.2	-2.7	-0.1	8.6	·	·	·	·
> COc1ccc(C2Nc3ccccc3C(=O)N2c2ccc(C)cc2)cc1Cn1nnc2ccccc21 (stereo unspecified)
→ -9.4	9.8	-4.3	-18.3	-0.2	6.7	-8.6	-4.7	5.9	3.8
> CCOc1cc(/C=C2\CCCC(C(=O)C(F)(F)F)=C2O)ccc1O
→ 10.9	-8.6	1.9	53.7	0.5	3.6	·	·	·	-7.0
> CN1CCN(CCN2CCn3c2nc2ccccc23)CC1
→ -7.1	29.5	-1.0	2.8	0.0	-9.6	·	·	·	0.0
> O=C(Nc1cccc(-c2nnc(-c3ccccc3)o2)c1)C1CC1
→ 10.7	6.6	-1.0	0.1	0.5	-5.7	8.5	15.6	1.0	0.7
> COc1cccc(CCNC(=O)C2CCCN(c3ncnc4c3nc3n4CCCCC3)C2)c1OC (stereo unspecified)
→ -6.2	14.0	0.4	-0.7	-0.2	-6.1	17.1	20.2	3.4	9.3
> CCc1ccccc1NC(=O)Nc1cnccn1
→ -0.4	2.0	4.3	-8.3	-0.3	1.4	8.5	8.1	2.7	-0.4
> Cc1nnc(CN(C)Cc2cn[nH]c2-c2ccc(-c3ccccc3)cc2)o1
→ 0.0	9.8	11.7	-6.8	1.1	1.9	2.7	4.4	2.4	-1.1
> CC1CCCC(NC(=O)CCNC(=O)c2ccc(Br)cc2)C1C (stereo unspecified)
→ -0.4	8.1	-0.7	-7.2	1.1	-19.7	1.9	0.1	0.1	-0.4
> CC1CCc2c(sc3nn[nH]c(=O)c23)C1 (stereo unspecified)
→ 4.4	0.4	3.2	2.7	-0.3	-4.1	-8.2	-6.3	-1.7	-11.0
> COc1ccc2cc(C3CC(c4cccs4)=NN3S(C)(=O)=O)c(Cl)nc2c1 (stereo unspecified)
→ -11.2	3.4	-5.7	-5.1	-0.2	-0.8	·	·	·	-2.2
> Cc1c(OCC(=O)NC2CCN(Cc3ccccc3)CC2)ccc2c3c(c(=O)oc12)CCC3
→ 23.2	32.9	1.0	-3.9	1.2	12.5	11.6	11.0	0.0	17.5
> COC(=O)c1nc2n(n1)C(c1cccc(Cl)c1)C1=C(CC(C)(C)CC1=O)N2 (stereo unspecified)
→ 12.1	1.7	0.7	-0.8	2.2	-9.1	1.5	9.3	-1.6	-0.5
> COc1ccccc1-c1cc(C2CC2)nc(N)c1C#N
→ -20.7	-5.9	1.1	-3.3	-1.0	-1.0	·	·	·	-1.5
> CN(CCc1ccccn1)S(=O)(=O)c1ccccc1F
→ -2.1	-27.3	1.4	-2.7	1.5	9.1	·	·	·	-7.3
> C=CCOc1c(Br)cc(/C=N/O)cc1OCC
→ -15.4	6.2	0.8	·	1.1	-4.1	·	·	·	-11.0
> CCc1nnc(NC(=O)c2cc(-c3cccnc3)nc3ccccc23)s1
→ 4.8	3.7	-7.3	-7.0	0.7	-3.0	-19.4	-8.5	-5.0	-8.8
> N=c1c2c(-c3ccccc3)c(-c3ccccc3)n(Cc3ccco3)c2ncn1CCCO
→ 6.1	64.7*	-4.3	-3.2	-0.2	13.6	-52.2*	-29.9*	-11.6*	5.0
> O=C(NCC1CCCO1)C(c1ccc(N2CCOCC2)cc1)N(C(=O)Cn1nnc2ccccc21)c1ccccc1F (stereo unspecified)
→ 3.3	-3.8	-0.4	-1.5	0.5	5.2	2.8	14.7	2.9	-1.3
> COc1ccc(OC)c(C(=O)Cn2nnc(-c3ccc(N4CCOCC4)cc3)n2)c1
→ -1.4	19.5	2.9	·	-0.7	8.8	6.1	-1.5	1.1	-1.0
> CCCC(=O)Nc1nnc(COC)s1
→ ·	·	-5.4	-6.5	0.3	-1.3	·	·	·	-5.2
> CNC(=S)N(Cc1cccs1)Cc1cc2ccc(OC)cc2[nH]c1=O
→ -5.7	22.4	-1.5	-9.7	0.5	-2.6	-10.0	-3.4	2.6	0.4
> N#CC1(NC(=O)COC(=O)c2nc(Cl)ccc2Cl)CCCCC1
→ 10.2	-3.9	1.5	-2.4	0.4	-5.5	7.2	1.0	-1.5	·
> CCCCOc1ccc(C(=O)NCCC(=O)NCCCC(=O)OCC)cc1
→ 12.4	-20.8	-4.8	-3.8	1.6	-3.6	6.5	0.7	3.5	-6.5
> CCN(CC)CCCn1c2c(c(SCC(=O)Nc3ccccc3Cl)nc1=O)CCC2
→ -0.2	5.9	-0.1	97.5*	0.0	-11.4	14.3	4.9	-0.3	-2.3

Grouped by structure: those above containing a Cl atom.
The line under a structure holds: Calb FLC	T cruzi repl	LANA-H2A inh	ALR H2O2 inh	A1 inh	B2AR ag	rRNA inh HTS	rRNA inh HTS OD600	rRNA inh HTS RFP	Beta cell apopt
> NCC12CC3CC(C1)CC(c1ccc(Cl)cc1)(C3)C2
→ ?	63.7*	-6.7	-20.8	0.0	36.0	-53.8	-78.7	-28.7	0.5
> Cc1cc(C)c(C(=O)COC(=O)CCNS(=O)(=O)c2c(Cl)cccc2Cl)cc1C
→ 7.4	-1.6	6.5	1.0	1.2	7.3	·	·	·	4.1
> O=C(/C=C/c1cccc(F)c1)Nc1cc(S(=O)(=O)N2CCOCC2)ccc1Cl
→ ·	·	-6.1	-3.6	0.5	3.9	-16.6*	-21.6*	6.8*	7.1
> COc1ccc2cc(C3CC(c4cccs4)=NN3S(C)(=O)=O)c(Cl)nc2c1 (stereo unspecified)
→ -11.2	3.4	-5.7	-5.1	-0.2	-0.8	·	·	·	-2.2
> COC(=O)c1nc2n(n1)C(c1cccc(Cl)c1)C1=C(CC(C)(C)CC1=O)N2 (stereo unspecified)
→ 12.1	1.7	0.7	-0.8	2.2	-9.1	1.5	9.3	-1.6	-0.5
> N#CC1(NC(=O)COC(=O)c2nc(Cl)ccc2Cl)CCCCC1
→ 10.2	-3.9	1.5	-2.4	0.4	-5.5	7.2	1.0	-1.5	·
> CCN(CC)CCCn1c2c(c(SCC(=O)Nc3ccccc3Cl)nc1=O)CCC2
→ -0.2	5.9	-0.1	97.5*	0.0	-11.4	14.3	4.9	-0.3	-2.3

Shown as a hit in ALR H2O2 inh, among the entries above:
| molecule | LANA-H2A inh | ALR H2O2 inh | B2AR ag | rRNA inh HTS | rRNA inh HTS OD600 | rRNA inh HTS RFP |
| --- | --- | --- | --- | --- | --- | --- |
| CCN(CC)CCCn1c2c(c(SCC(=O)Nc3ccccc3Cl)nc1=O)CCC2 | -0.1 | 97.5* | -11.4 | 14.3 | 4.9 | -0.3 |

From PubChem BioAssay
